# NPYLR7 ag: agonists of mosquito NPYLR7 receptor, primary screen, cell-based, Aedes aegypti, calcium fluorescence, mosquito biting behavior; actives 0.15% (n = 270,000); activation, % at 10 µM; Aedes aegypti neuropeptide Y-like receptor 7 (NPYLR7); HEK293T NPYLR7/Galpha15, GCaMP6s calcium fluorescence; in the data active = activation above about 40%;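 note: 0% = vehicle and 100% = reference agonist at the receptor; some compounds past the cut are filed as inactive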
# NPYLR7 ag max-min: recorded beside NPYLR7 ag, whose call it bears; activation, %; measured here: Max-Min RFU normalised activation; some inactives read as strong as hits;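 span of the calcium signal over five minutes; 0% = vehicle and 100% = native peptide agonist; compound fluorescence can raise it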
# The depositor's hits bear a star; & = joins results of further samples. Only part of the results is shown; rates above refer to the full screens.
# Results follow in this order: NPYLR7 ag	NPYLR7 ag max-min
> CN(C)c1ccc(N)cc1CN(CC1CCCO1)C(=O)c1cccc(F)c1 (stereo not drawn)
    8	4
> O=c1[nH]c(/C=C/c2ccccc2O)c([N+](=O)[O-])c(=O)[nH]1
    -10	-14
> O=C1CC2(CCN(Cc3cn(-c4ccccc4)nc3-c3ccncc3)CC2)CN1
    6	6
> CSc1ccc(CN2C(=O)C(C)ON=C2c2ccc(F)cc2)cc1 (stereo not drawn)
    -2	-4
> Cc1ccc(C(=O)Nc2cccc(CN3CCOC3=O)c2)s1
    11	8
> COc1cc(OC)c(OC)cc1/C=C/c1cc(C(F)(F)F)[nH]c(=O)n1
    -2	-5
> CCOC(=O)c1c(NC(=O)COC(=O)C(C)NC(N)=O)sc(C(C)=O)c1C (stereo not drawn)
    9	8
> CCOC(=O)c1ccc(NC(=O)N2CCc3ccccc3C2c2ccc(Cl)cc2)cc1 (stereo not drawn)
    16	3
> COc1cc(C2CC(=O)Nc3ccc4ccccc4c32)cc(Cl)c1O (stereo not drawn)
    -18	-29
> Cn1cnc(Sc2nc3ccccc3[nH]2)c1[N+](=O)[O-]
    1	-1
> CCOC(=O)c1nn(-c2ccccc2)c(=O)cc1OCC(=O)Nc1cccc(OC)c1
    7	3
> CC(C)c1ccc(-c2nnn(CC(=O)Nc3cc(C(F)(F)F)ccc3-n3cncn3)n2)cc1
    -7	-11
> Cc1cccc(C(C)(C)C)c1NC(=O)N1CCN2C(=O)CNC(=O)C2C1 (stereo not drawn)
    -1	-2
> Cc1cc(C#N)ccc1S(=O)(=O)Nc1nc(C(C)C)nn1C
    1	1
> CC(C)CN1C(=O)CNC1=S
    3	2

# Carrying on.
# Results follow in this order: NPYLR7 ag	NPYLR7 ag max-min
> Clc1ccccc1N1N=C(/C=C/c2cccs2)CC1c1cccs1 (stereo not drawn)
    -4	-9
> CCOC(=O)N1CCCC(C(=O)NCc2ccc(F)cc2)C1 (stereo not drawn)
    -1	-5
> CNC(=S)NN(c1ccccc1)c1ccccc1
    3	2
> Cc1ccccc1C(=O)N1CCC(c2nc(-c3cccnc3)no2)CC1
    4	-1
> CS(=O)(=O)c1ccc(Nc2nc(CC(=O)NCCC3=CCCCC3)cs2)cc1
    7	-2
> COc1ccccc1-n1c(=O)c2ccccc2n(Cc2ccc(C(=O)NCCN3CCOCC3)cc2)c1=O
    6	7
> COCC(=O)Nc1c(-c2cccc(Cl)c2)nc2cc(C)ccn12
    5	10
> CCCc1[nH]n(-c2ccc(Cl)c(Cl)c2)c(=O)c1C1=C([n+]2cccc(C)c2)C(=O)N(CCC)C1=O
    8	9
> O=C(Nc1ccc(Cl)c(F)c1)c1cnn2c(C(F)(F)F)cc(-c3ccc(Br)cc3)nc12
    6	11
> Cc1sc2ncnc(N3CCCCCC3)c2c1C
    9&3	3&-2
> CN(c1ccccc1)S(=O)(=O)c1cc(C(=O)O)cs1
    7	5
> CC(NC(=O)Cn1c2ccccc2c(=O)c2ccccc21)c1ccccc1 (stereo not drawn)
    4	3
> NC(=O)c1ccc(COC(=O)c2ccc(Cl)cc2N2CCCC2=O)cc1
    5	1
> Cc1cccn2c(=O)nc(SCC#N)nc12
    5	2
> O=C(CN(CCCN1CCOCC1)C(=O)Nc1cccc(Br)c1)N(Cc1ccccc1)Cc1ccco1
    6	5

# Continued.
# Results follow in this order: NPYLR7 ag	NPYLR7 ag max-min
> CC(C)(C)c1ccc(CC(=O)N2CCC2(C)C(=O)Nc2ccc(F)cc2F)cc1 (stereo not drawn)
    -3	1
> CCOc1ccc(-c2ccnc(N3CCN(S(=O)(=O)c4ccc(F)cc4Cl)CC3)n2)cc1
    5	-6
> CCN1CCN(C2=C(c3c(C)[nH]n(-c4cccc(Cl)c4)c3=O)C(=O)N(c3ccc(OC)cc3OC)C2=O)CC1
    4&-22	10&-22
> CCOC(=O)c1sc(=NC(=O)c2ccc(S(=O)(=O)N3CCc4ccccc4C3)cc2)n(C)c1C
    -1	1
> CCOP(=O)(CCCCNC(=O)[C@H](CCC(N)=O)NC(=O)OC(C)(C)C)OCC
    -5	-11
> CC(C)C[C@H](NC(=O)CSCc1ccccc1)C(=O)NCC#N
    7	1
> Cc1nccn1CC(O)Cn1c2ccccc2c2ccccc21 (stereo not drawn)
    5	11
> CCOC(=O)/C=C/c1cc(C(=O)OCC)c(/C=C/C(=O)OCC)cc1C(=O)OCC
    -20	-25
> OCc1ccc(CNCc2cc(Cl)cc(Cl)c2O)cc1F
    18	11
> CC(Nc1ncccn1)C1CC2CCC1C2 (stereo not drawn)
    -1	0
> COc1ccc(C2c3cccn3-c3ccccc3N2C(=O)CN(C(=O)Nc2cccc(Cl)c2)C2CC2)cc1 (stereo not drawn)
    -12	-6
> CCc1nc2n(n1)C(=O)C(C(c1ccc(C(C)C)cc1)N1CCC(O)CC1)S2 (stereo not drawn)
    -4	-11
> COCc1c(Br)c(C)nc(OCC(=O)N/N=C\c2cc(Br)c(OCc3ccc(Cl)cc3Cl)c(OC)c2)c1C#N
    6	13
> CCOc1ccc(N=Nc2c(C)[nH]n(-c3ccccc3)c2=O)cc1
    -1	-6
> O=S(=O)(CCN1CCc2ccccc2C1)Oc1ccccc1
    10	6

# Given with each value named: 4 of the compounds above.
CNC(=S)NN(c1ccccc1)c1ccccc1
  NPYLR7 ag: 3
  NPYLR7 ag max-min: 2
Cc1ccccc1C(=O)N1CCC(c2nc(-c3cccnc3)no2)CC1
  NPYLR7 ag: 4
  NPYLR7 ag max-min: -1
CS(=O)(=O)c1ccc(Nc2nc(CC(=O)NCCC3=CCCCC3)cs2)cc1
  NPYLR7 ag: 7
  NPYLR7 ag max-min: -2
COc1ccccc1-n1c(=O)c2ccccc2n(Cc2ccc(C(=O)NCCN3CCOCC3)cc2)c1=O
  NPYLR7 ag: 6
  NPYLR7 ag max-min: 7

# Remaining list, next part:
# Results follow in this order: NPYLR7 ag	NPYLR7 ag max-min
> CC1=C(C)C(=O)C(C(CCCCCC(=O)O)c2ccccc2)=C(C)C1=O (stereo not drawn)
    -3	-4
> Cc1nnc2n1CC(C(=O)N1CCCC1c1ccc3c(c1)OCO3)CC2 (stereo not drawn)
    6	2
> O=C(Oc1coc(CSc2ncccn2)cc1=O)c1cc2ccccc2o1
    -24	-13
> N#CC1(c2ccccc2)CCC2(CC1)CC(C(=O)N1CCc3ccccc31)=NO2 (stereo not drawn)
    0	27
> Cc1ccccc1Cn1c2c(c(C)c1C(=O)NCCc1ccccn1)CCCC2
    1	-2
> CC(=O)Nc1ccc(Cl)c(C(=O)NCC2(Cn3cccn3)CC2)c1
    -2	-3
> COc1ccccc1NC(=O)N(Cc1ccc(OS(=O)(=O)C(C)C)cc1)CC1CCCO1 (stereo not drawn)
    4	10
> CCOc1ccc(C(=O)Nc2cc(-c3nc4cc(C)cc(C)c4o3)ccc2C)cc1
    11	5
> CC(C)Cn1ncc2c1NC(=O)CC2c1csc(-c2ccccc2)n1 (stereo not drawn)
    8	7
> Cc1cccc2c(CNc3ccncc3)c(C(=O)O)oc12
    -4	-13
> CCCS(=O)(=O)N1CCN=C1SCc1cccc(C(F)(F)F)c1
    10	9
> CCOCCCNC(=O)Cc1cccc(C(F)(F)F)c1
    5	4
> CCc1ccc(-c2noc(COC(=O)c3cc(S(=O)(=O)N4CCCCC4)ccc3Cl)n2)cc1
    3	5
> COCCN(Cc1ccc(OS(=O)(=O)c2cccc(C(F)(F)F)c2)cc1)C(=O)Nc1c(Cl)cccc1Cl
    19	25
> CN(C)c1ccc(-c2nc3ccc(C(=O)N4CCCC(CO)C4)cc3[nH]2)cc1 (stereo not drawn)
    2	26

# Carrying on:
# Results follow in this order: NPYLR7 ag	NPYLR7 ag max-min
> O=C1c2ccccc2C(=O)N1c1nc2nc(-c3ccccc3)cc(=O)n2[nH]1
    -11	-15
> Oc1ccc(C=NNc2ncc(C(F)(F)F)cc2Cl)c(O)c1
    -7	-7
> COc1ccc(-c2cc3ccc(OCCBr)cc3oc2=O)cc1
    -4	2
> O=C(CCc1ccccc1)NC1CCN(CC(=O)N2CCNC2=O)CC1
    12	8
> CCCN(Cc1cccnc1OC)C1CCN(C(=O)c2ccccc2)CC1
    4	1
> O=P1(Nc2ccc(-c3ccccc3)cc2)C=C(c2ccccc2)OC(c2ccccc2)=C1
    -5	-6
> O=S(=O)(c1cccc(Br)c1)N1CCN(CCCOC(c2ccc(Cl)cc2)c2ccc(Cl)cc2)CC1
    3	1
> Cc1ccc(C)c2[nH]c(=O)c(CCNC(=O)c3ccc(-c4ccccc4)cc3)cc12
    0	10
> COc1cc(/C=C2\C(=N)N3N=CSC3=NC2=O)cc(OC)c1OCCOc1ccccc1Cl
    -1	-2
> N#Cc1ncn(CC(=O)N=c2sccn2Cc2ccccc2Cl)n1
    14	12
> O=C(O)Cn1nc(C(F)(F)F)c2c1CCCCC2
    1	-2
> CCN1CCN(C(=O)c2cc(-c3cccc(F)c3)n3nc(C(C)(C)C)cc3n2)CC1
    8	15
> CCCCCn1c(N)c(C#N)c2nc3ccccc3nc21
    9	13
> O=C(NCCCC1CCOC1)c1ccc2nccnc2c1 (stereo not drawn)
    18	10
> COc1ccccc1C(=O)C1CCCN(C(=O)CCCc2cccs2)C1 (stereo not drawn)
    0	-2

# (cont.)
# Results follow in this order: NPYLR7 ag	NPYLR7 ag max-min
> FC(F)(F)c1cccc(C2c3cccn3CCCN2Cc2ccsc2)c1 (stereo not drawn)
    2	6
> O=S(=O)(c1ccc(C2CCCCC2)cc1)N1CCN(Cc2cccc(F)c2)CC1
    -1	9
> CC(C)c1cc(C2CCN(C(=O)CC(F)(F)F)CC2)[nH]n1
    0	-2
> OCCC1CN(Cc2ccncc2)CCN1Cc1ccccc1F (stereo not drawn)
    -4	-8
> COc1ccccc1-c1cc(C(=O)NC(C)(C)C)n2nc(-c3ccccc3)cc2n1
    4	9
> c1ccc(-c2nnn(CN3CCN(c4ncccn4)CC3)n2)cc1
    6	14
> COc1ccc(CC(=O)NCCC(=O)N2CCC(C(=O)Nc3ccc(OC)cc3)CC2)cc1
    31	30
> COc1cc(Cn2nc(-c3ccc(F)cc3)c3sc(C)nc3c2=O)cc(OC)c1
    2	1
> CCCOC(=O)c1ccc(N=CC(C#N)c2nc(-c3cccs3)cs2)cc1 (stereo not drawn)
    4	3
> CCOc1ccc(C(=O)Nc2c(C)nc3cccc(C)n3c2=O)cc1
    1	-2
> COc1ccc(S(=O)(=O)NC2CC2)cc1NCc1ccc(C#N)cc1
    8	4
> CCn1ccnc1Cn1cnc(-c2ccccc2)c1-c1c(C)n[nH]c1C
    -1	-4
> CC(C)(C)c1nc(CN2CCCC(N3CCCC3=O)C2)no1 (stereo not drawn)
    4	1
> CCc1cccc(NC(=O)Cc2c(Cl)cc(C)nc2Cl)c1
    1	0
> C(=NN=Cc1ccccn1)C1=C(N2CCOCC2)C(=Cc2ccccc2)CC1
    1	-1

# Further results follow:
# Results follow in this order: NPYLR7 ag	NPYLR7 ag max-min
> CCSc1nnc2c(n1)OC(C)Nc1ccc(Br)cc1-2 (stereo not drawn)
    3	0
> O=S(=O)(c1ccccc1OC(F)(F)F)N1CCN(C(c2ccccc2)c2ccc(Cl)cc2)CC1 (stereo not drawn)
    4	0
> Ic1ccccc1C=NNC1=NCCCCC1
    0	-3
> O=[N+]([O-])c1ccc(C=NN(c2ccccc2)c2ccccc2)o1
    -4	-6
> CCCc1cc(=O)[nH]c2nnc(SC)n12
    -10	-8
> O=C(CCc1cc(Cl)no1)N1CCOC(C(F)(F)F)C1 (stereo not drawn)
    -1	-2
> S=c1[nH]nc(Cc2csc3nc(-c4ccccc4)nn23)n1-c1cccc2ccccc12
    0	-5
> NC(=O)c1ccc(C(=O)NC2(c3cccc(Cl)c3)CC2)cc1
    8	4
> CCOc1ccccc1C(=O)Nc1cc(C(C)(C)C)nn1-c1ccc(Br)cc1
    3	1
> Cc1ccc(-c2nnc(SCCCC(=O)NC3COC(C)(C)OC3c3ccccc3)n2-c2ccc(C)cc2)cc1 (stereo not drawn)
    -2	6
> CC(C)C1CN(Cc2c[nH]c(=O)[nH]c2=O)CCC(=O)N1CC1CC1 (stereo not drawn)
    -3	7
> CC(c1nccs1)N(C)Cc1cn(Cc2ccccc2)nc1-c1ccc2c(c1)OCO2 (stereo not drawn)
    1	1
> Nc1ccc2c(c1)nc(CCCO)n2CCO
    2	-3
> COCCNC(=O)c1ccc(CSc2nnc(-c3cccc(OC)c3)n2Cc2ccccc2)cc1
    25	36
> COc1ccccc1/C=C1N=C(/C=C/c2ccc([N+](=O)[O-])cc2)OC/1=O
    -3	-5

# (list continues)
# Results follow in this order: NPYLR7 ag	NPYLR7 ag max-min
> COc1ccc(C2CCCCCN2CCn2nc3ccccn3c2=O)cc1 (stereo not drawn)
    6	4
> O=C(c1ccc[nH]1)N1CCC2(CC1)C(=O)Nc1ccccc12
    2	1
> COc1ccc(NC(=O)N2CCc3ccccc3C2c2ccccc2Cl)c(C)c1 (stereo not drawn)
    -1	6
> CCN(CC)S(=O)(=O)c1ccc(OC)c(N2CCN(C(=O)c3ccc(OC)cc3OC)CC2)c1
    0	-9
> CN(C(=O)CSc1nnc(N2CCCC2)n1C1CC1)c1ccccc1
    -2	-3
> O=C(Cc1ccccc1)N(Cc1c(-c2ccccc2)noc1N1CCc2ccccc2C1)CC1CCCO1 (stereo not drawn)
    7	15
> O=C(Nc1ccc2nc([C@H]3C[C@H](O)[C@@H](CO)O3)[nH]c2c1)Nc1ccccc1-c1ccccc1
    14	13
> O=C(C1CCCN(c2nc(Cc3ccc(F)cc3)ns2)C1)N1CCN(c2ccccc2F)CC1 (stereo not drawn)
    11	16
> CC(C)=CC(=O)NCc1cc(C)cc2c(C)c(C)[nH]c12
    9	2
> CC(=O)Nc1ccc(S(=O)(=O)NC(C)Cn2cncn2)cc1 (stereo not drawn)
    0	11
> Cc1ccc(Cc2nsc(N3CCC(CNC(=O)/C=C/c4ccc([N+](=O)[O-])cc4)CC3)n2)cc1
    19	14

# High-throughput results: PubChem, Fisher Drug Discovery Resource Center
